A1 apoptosis 2 = A1 inhibition read as caspase activation; caspase activation, % (concentration not given with the values); MEF A1-2A-BIM cells, caspase-Glo luminescence, 3 h; percent of clofoctol response, DMSO zero; 24,000 tested, under 10 active; in the data active means caspase activation above about 5.9%;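 further: wells of about 30 µL received 50 nL stock; the first replicate is given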
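Material: mouse embryonic fibroblasts co-expressing A1 and BIM (A1-2A-BIM), primed for A1 dependence / Quantity: 2500 cells/well / Buffer or medium: RPMI-1640 growth medium with 10% FBS / Doses: 50 nL compound per well, pinned / Schedule: 3 h compound exposure at 37 °C / Signal: Caspase-Glo luminescence (DEVD substrate) / Measure: Caspase-3/7 activation, seen as rise in luminescence signal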
The depositor's hits bear a star. Only part of the results is shown; count on the stated rates, not on these rows.

item	Structure	A1 apoptosis 2
1	C[C@H](CO)N1C[C@H](C)[C@H](CN(C)Cc2ccc3c(c2)OCO3)OCc2cn(nn2)CCCC1=O	1.7
2	C[C@@H]1CN([C@H](C)CO)C(=O)CCCn2nncc2CO[C@H]1CN(C)C(=O)Nc1ccccc1F	-0.6
3	COc1ccc(CN(C)C[C@@H]2Oc3ccc(NS(=O)(=O)c4ccc(OC)cc4)cc3CC(=O)N([C@H](C)CO)C[C@H]2C)cc1	1.2
4	C[C@@H]1CN([C@@H](C)CO)C(=O)c2cccc(NS(=O)(=O)c3ccc(F)cc3)c2O[C@H]1CN(C)C(=O)Nc1ccc(C(F)(F)F)cc1	1.5
5	CC(=O)n1cc([C@H]2C=C(C(=O)N3CCN(C)CC3)O[C@@H](OCc3ccc(CO)cc3)C2)c2ccccc21	0.3
6	COc1ccc(NC(=O)N(C)C[C@@H]2Oc3ccc(NC(=O)Nc4cccc5ccccc45)cc3CC(=O)N([C@H](C)CO)C[C@@H]2C)cc1	-0.5
7	Cc1ccc(S(=O)(=O)Nc2cccc3c2O[C@@H](CN(C)C(=O)Nc2ccccc2)[C@H](C)CN([C@H](C)CO)C3=O)cc1	0.8
8	COc1ccc(S(=O)(=O)N(C)C[C@@H]2Oc3ccc(NC(=O)NC(C)C)cc3CC(=O)N([C@H](C)CO)C[C@@H]2C)cc1	1.8
9	C[C@@H]1CCCCO[C@H](CN(C)Cc2ccc3c(c2)OCO3)[C@@H](C)CN([C@H](C)CO)C(=O)c2cc(NC(=O)Nc3cccc4ccccc34)ccc2O1	-0.6
10	C[C@H](CO)N1C[C@H](C)[C@H](CN(C)C(=O)c2ccncc2)OCCCC[C@H](C)Oc2ccc(NC(=O)CCC(F)(F)F)cc2C1=O	-1.8
11	Cc1noc(C)c1NC(=O)N(C)C[C@H]1OCCCC[C@@H](C)Oc2ccc(NS(=O)(=O)c3cccs3)cc2C(=O)N([C@H](C)CO)C[C@@H]1C	-0.4
12	CC(C)NC(=O)N(C)C[C@H]1OCCCC[C@H](C)Oc2ccc(NS(=O)(=O)c3ccc(F)cc3)cc2C(=O)N([C@H](C)CO)C[C@H]1C	0.1
13	C[C@H](CO)N1C[C@H](C)[C@@H](CN(C)C(=O)Nc2ccc(C(F)(F)F)cc2)Oc2ccc(NC(=O)Cc3cn(C)c4ccccc34)cc2C1=O	-1.2
14	C[C@@H]1CN([C@H](C)CO)C(=O)c2cc(NC(=O)c3ccccc3)ccc2O[C@@H](C)CCCCO[C@H]1CN(C)C(=O)Nc1ccc(C(F)(F)F)cc1	2.0
15	C[C@H](CO)N1C[C@H](C)[C@@H](CN(C)C(=O)CCCN(C)C)OCCCC[C@H](C)Oc2ccc(NC(=O)CCC(F)(F)F)cc2C1=O	1.0
16	C[C@@H]1CN([C@@H](C)CO)C(=O)Cc2cc(NC(=O)Nc3ccccc3)ccc2O[C@@H]1CN(C)Cc1ccc(C(F)(F)F)cc1	1.1

Two entries from above, as labelled records.
12	CC(C)NC(=O)N(C)C[C@H]1OCCCC[C@H](C)Oc2ccc(NS(=O)(=O)c3ccc(F)cc3)cc2C(=O)N([C@H](C)CO)C[C@H]1C
- A1 apoptosis 2: 0.1

13	C[C@H](CO)N1C[C@H](C)[C@@H](CN(C)C(=O)Nc2ccc(C(F)(F)F)cc2)Oc2ccc(NC(=O)Cc3cn(C)c4ccccc34)cc2C1=O
- A1 apoptosis 2: -1.2

(continued)
item	Structure	A1 apoptosis 2
17	Cc1ccc(S(=O)(=O)N(C)C[C@H]2Oc3ccc(NC(=O)NC(C)C)cc3CC(=O)N([C@H](C)CO)C[C@@H]2C)cc1	-0.3
18	C[C@H]1CN([C@@H](C)CO)C(=O)Cc2cc(NC(=O)c3ccncc3)ccc2O[C@H]1CN(C)Cc1ccc(C(=O)O)cc1	1.1
19	C[C@H](CO)N1C[C@H](C)[C@H](CN(C)C(=O)c2ccncc2)OCCCC[C@H](C)Oc2ccc(NC(=O)C3CCCCC3)cc2C1=O	1.1
20	C[C@H]1CN([C@@H](C)CO)C(=O)c2cccc(NC(=O)CCCCCC(=O)Nc3ccccc3N)c2O[C@@H]1CN(C)C(=O)NC1CCCCC1	0.1
21	C[C@H]1CCCCO[C@H](CN(C)CC2CCCCC2)[C@@H](C)CN([C@@H](C)CO)C(=O)c2cc(NC(=O)c3ccncc3)ccc2O1	-0.3
22	COc1cccc(-c2cnc3c(c2)C(=O)N([C@H](C)CO)C[C@H](C)[C@H](CN(C)S(=O)(=O)c2cn(C)cn2)O3)c1	-0.1
23	COc1ccc(CN(C)C[C@@H]2Oc3ccc(NS(=O)(=O)c4cn(C)cn4)cc3CC(=O)N([C@H](C)CO)C[C@@H]2C)cc1	-0.4
24	C[C@@H]1CN([C@@H](C)CO)C(=O)c2cc(NC(=O)Cc3ccccc3)ccc2O[C@@H](C)CCCCO[C@H]1CN(C)C	-1.0
25	C[C@H](CO)N1C[C@H](C)[C@H](CN(C)S(=O)(=O)c2ccc(Cl)cc2)Oc2ccc(NS(=O)(=O)c3ccc(Cl)cc3)cc2C1=O	-0.7
26	C[C@@H]1CN([C@@H](C)CO)C(=O)Cc2cc(NS(=O)(=O)c3ccc(F)cc3)ccc2O[C@H]1CN(C)Cc1ccncc1	2.2
27	C[C@@H]1CCCCO[C@H](CN(C)Cc2ccncc2)[C@H](C)CN([C@H](C)CO)C(=O)c2cc(NC(=O)CCCN(C)C)ccc2O1	-0.2
28	COc1ccc(S(=O)(=O)Nc2ccc3c(c2)C(=O)N([C@H](C)CO)C[C@@H](C)[C@@H](CN(C)C(=O)NC2CCCCC2)OCCCC[C@H](C)O3)cc1	-0.7
29	C[C@@H]1CCCCO[C@H](CN(C)C(=O)c2ccccc2)[C@@H](C)CN([C@H](C)CO)C(=O)c2cc(NS(=O)(=O)c3cn(C)cn3)ccc2O1	-0.8
30	COc1ccc(CN(C)C[C@H]2Oc3c(NC(=O)Nc4c(C)noc4C)cccc3C(=O)N([C@H](C)CO)C[C@@H]2C)cc1	0.0
31	Cc1noc(C)c1S(=O)(=O)Nc1ccc2c(c1)C(=O)N([C@@H](C)CO)C[C@@H](C)[C@H](CN(C)S(=O)(=O)c1c(C)noc1C)OCCCC[C@@H](C)O2	-0.2
32	C[C@H](CO)N1C[C@H](C)[C@@H](CN(C)S(=O)(=O)c2ccc(Cl)cc2)Oc2c(NC(=O)Nc3ccc(C(F)(F)F)cc3)cccc2C1=O	-0.9
33	C[C@H]1CN([C@@H](C)CO)C(=O)c2cc(NC(=O)NC3CCCCC3)ccc2O[C@@H]1CN(C)CC1CCCCC1	-1.2
34	C[C@@H]1CN([C@H](C)CO)C(=O)CCCn2cc(nn2)CO[C@@H]1CN(C)S(=O)(=O)c1ccc(-n2cccn2)cc1	1.9
35	CC(C)NC(=O)Nc1cccc2c1O[C@@H](CN(C)CC1CC1)[C@H](C)CN([C@@H](C)CO)C2=O	-0.5
36	C[C@H](CO)N1C[C@H](C)[C@H](CN(C)C(=O)Nc2cccc3ccccc23)Oc2ccc(NS(=O)(=O)c3cn(C)cn3)cc2C1=O	1.0
37	CCCCc1cn(C[C@H](Cc2ccccc2)NC(=O)N[C@H](CO)CCc2oc(C(C)=O)c(C(=O)OC)c2C(=O)OC)nn1	-1.1
38	CNC[C@H]1OCCCC[C@H](C)Oc2ccc(NC(=O)NC(C)C)cc2C(=O)N([C@H](C)CO)C[C@@H]1C	-0.1
39	CCCN(C)C[C@H]1OCc2cnnn2CCCC(=O)N([C@@H](C)CO)C[C@H]1C	1.4
40	C[C@@H]1CN([C@H](C)CO)C(=O)c2cc(NC(=O)Nc3ccc4c(c3)OCO4)ccc2O[C@H]1CN(C)Cc1ccncc1	0.1

Sorted by length of the SMILES (lowest first): 4 of the compounds above.
item	Structure	A1 apoptosis 2
39	CCCN(C)C[C@H]1OCc2cnnn2CCCC(=O)N([C@@H](C)CO)C[C@H]1C	1.4
37	CCCCc1cn(C[C@H](Cc2ccccc2)NC(=O)N[C@H](CO)CCc2oc(C(C)=O)c(C(=O)OC)c2C(=O)OC)nn1	-1.1
34	C[C@@H]1CN([C@H](C)CO)C(=O)CCCn2cc(nn2)CO[C@@H]1CN(C)S(=O)(=O)c1ccc(-n2cccn2)cc1	1.9
36	C[C@H](CO)N1C[C@H](C)[C@H](CN(C)C(=O)Nc2cccc3ccccc23)Oc2ccc(NS(=O)(=O)c3cn(C)cn3)cc2C1=O	1.0

(more compounds)
item	Structure	A1 apoptosis 2
41	C[C@@H]1CN([C@H](C)CO)C(=O)c2cc(NC(=O)Cn3cnnn3)ccc2O[C@H]1CN(C)C	-1.2
42	COc1ccc(CN(C)C[C@@H]2OCCCC[C@@H](C)Oc3ccc(NS(=O)(=O)c4ccc(Cl)cc4)cc3C(=O)N([C@@H](C)CO)C[C@@H]2C)cc1	0.0
43	CNC[C@@H]1Oc2c(N)cccc2C(=O)N([C@H](C)CO)C[C@H]1C	-0.1
44	O=C1O[C@@H](c2ccccc2)[C@@H](c2ccccc2)N2[C@@H](c3ccc(OCCO)cc3)[C@]3(C(=O)Nc4ccccc43)[C@@H](C(=O)NC[C@H](O)c3ccccc3)[C@H]12	1.4
45	C[C@@H]1CN([C@H](C)CO)C(=O)c2cc(NC(=O)CCCN(C)C)ccc2O[C@@H](C)CCCCO[C@@H]1CN(C)Cc1ccc(C(F)(F)F)cc1	-1.1
46	C[C@@H]1CN([C@@H](C)CO)C(=O)c2cc(NC(=O)c3ccccc3)ccc2O[C@@H](C)CCCCO[C@@H]1CN(C)C	-0.5
47	C[C@H]1CN([C@@H](C)CO)C(=O)c2cccc(NC(=O)C3CC3)c2O[C@H]1CN(C)C(=O)Nc1cccc2ccccc12	-0.8
48	NC(=O)COc1ccc(/C=N/NC(=O)CCCCCCC(=O)NO)cc1	-0.1

2 compounds drawn at random from those above:
item	Structure	A1 apoptosis 2
37	CCCCc1cn(C[C@H](Cc2ccccc2)NC(=O)N[C@H](CO)CCc2oc(C(C)=O)c(C(=O)OC)c2C(=O)OC)nn1	-1.1
21	C[C@H]1CCCCO[C@H](CN(C)CC2CCCCC2)[C@@H](C)CN([C@@H](C)CO)C(=O)c2cc(NC(=O)c3ccncc3)ccc2O1	-0.3

Other entries
item	Structure	A1 apoptosis 2
49	C[C@H](CO)N1C[C@H](C)[C@H](CN(C)Cc2ccncc2)Oc2ccc(NC(=O)Nc3ccc(F)cc3)cc2CC1=O	-0.2
50	C[C@@H]1CCCCO[C@@H](CN(C)Cc2ccc(C(F)(F)F)cc2)[C@H](C)CN([C@@H](C)CO)C(=O)c2cc(NC(=O)Cc3ccccc3)ccc2O1	-0.8
51	C[C@@H]1CCCCO[C@@H](CN(C)C(=O)Nc2cccc3ccccc23)[C@H](C)CN([C@H](C)CO)C(=O)c2cc(NS(=O)(=O)c3ccc(F)cc3)ccc2O1	-0.7
52	C[C@@H]1CN([C@H](C)CO)C(=O)c2cccc(NC(=O)c3ccc(-c4nccs4)cc3)c2O[C@@H]1CN(C)C(=O)Nc1ccc2c(c1)OCO2	-0.7
53	COc1cc(Br)c(/C=N/NC(=O)c2cccc(C(=O)NO)c2)cc1OC	1.8
54	COc1ccc(S(=O)(=O)Nc2ccc3c(c2)C(=O)N([C@@H](C)CO)C[C@H](C)[C@H](CN(C)Cc2ccc(C(=O)Nc4ccccc4N)cc2)O3)cc1	1.5
55	C[C@H](CO)N1C[C@H](C)[C@H](CN(C)Cc2ccncc2)Oc2ncccc2C1=O	-0.1
56	Cc1noc(C)c1S(=O)(=O)Nc1ccc2c(c1)C(=O)N([C@@H](C)CO)C[C@@H](C)[C@H](CN(C)Cc1ccccc1)OCCCC[C@@H](C)O2	-0.1
57	C[C@@H]1CN([C@@H](C)CO)C(=O)c2cc(NC(=O)CCCN(C)C)ccc2O[C@H]1CN(C)C	-0.3
58	CNC[C@H]1Oc2ccc(NS(=O)(=O)c3ccc(F)cc3)cc2CC(=O)N([C@@H](C)CO)C[C@@H]1C	-0.7
59	C[C@@H]1CN([C@@H](C)CO)C(=O)c2cccc(NC(=O)Nc3ccc(C(F)(F)F)cc3)c2O[C@H]1CN(C)C(=O)Nc1cccc2ccccc12	1.8
60	Cc1noc(C)c1NC(=O)Nc1ccc2c(c1)CC(=O)N([C@H](C)CO)C[C@@H](C)[C@@H](CN(C)Cc1ccc(C(=O)Nc3ccccc3N)cc1)O2	-0.4
61	C[C@@H]1CN([C@H](C)CO)C(=O)c2cc(NS(=O)(=O)c3cccs3)ccc2O[C@H]1CN(C)Cc1ccc2c(c1)OCO2	1.0
62	CCOc1cccc(/C=N/NC(=O)c2ccccn2)c1OCC	-1.4
63	C[C@H]1CN([C@@H](C)CO)C(=O)c2cc(NS(=O)(=O)c3cn(C)cn3)ccc2O[C@@H]1CN(C)CC1CC1	-0.2
64	C[C@H]1CN([C@@H](C)CO)C(=O)c2cc(NC(=O)CCC(F)(F)F)ccc2O[C@H]1CN(C)Cc1ccncc1	0.3
65	C[C@@H]1CN([C@H](C)CO)C(=O)c2cc(NS(C)(=O)=O)ccc2O[C@@H](C)CCCCO[C@H]1CN(C)Cc1ccncc1	-0.2
66	CC1(C)C[C@H]2C[C@H]3C(Br)=CC2(CO1)C(=O)[C@]31CO1	1.5
67	C[C@@H]1CN([C@@H](C)CO)C(=O)Cc2cc(NC(=O)Cc3ccccc3)ccc2O[C@@H]1CN(C)S(=O)(=O)c1ccc(Cl)cc1	-0.5
68	C[C@H](CO)N1C[C@H](C)[C@H](CN(C)Cc2ccc3c(c2)OCO3)Oc2c(NS(=O)(=O)c3ccccc3)cccc2C1=O	-1.0
69	C[C@@H]1CN([C@H](C)CO)C(=O)Cc2cc(NC(=O)CCN3CCOCC3)ccc2O[C@@H]1CN(C)C(=O)Nc1ccccc1	-1.0
70	COc1ccc(Br)cc1/C=N/NC(=O)CCCCC(=O)NO	0.0
71	CNC[C@H]1Oc2ccc(NC(=O)Nc3ccc(OC)cc3)cc2CC(=O)N([C@H](C)CO)C[C@H]1C	0.7

Source: PubChem
